Screens deposited in PubChem BioAssay by Center for Chemical Genomics, University of Michigan.
CDC25B CDK2 inh: human CDC25B-CDK2/CyclinA binding inhibition | HTRF CDC25B-CDK2/CyclinA binding, anti-His/anti-Flag; active compounds read high | P30305+P24941 | z-score (concentration not given with the values) | actives 0.72% (n = 94,000);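 further: score is relative to mean and SD of negative controls; strong numbers were not always called active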
HIV TAR-Tat: HIV-1 TAR-Tat binding disruption | HIV-1 TAR RNA, Tat peptide displacement FRET; active compounds read high | z-score (concentration not given with the values) | actives 0.6% (n = 100,000);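 further: score is relative to mean and SD of negative controls; some compounds called inactive have numbers as strong as hits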
Starred values were filed as active, the others as inactive; x = no result given.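 How the source made its calls: active means z-score from 3 up in half or more of its runs; inactive means the rest.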 No enrichment for hits; 0.9% or so of the library scored in one or more.

compound | CDC25B CDK2 inh | HIV TAR-Tat
CC1CCc2c(sc(NC(=O)c3nc(-n4cnnc4)ccc3Br)c2C#N)C1 (configuration not stated) | x | 1.9
O=C(c1cc(=O)c2cc(Cl)ccc2o1)N(Cc1ccc(F)cc1)C1CCS(=O)(=O)C1 (configuration not stated) | -1.9 | -0.94
O=C(Nc1ccc(O)cc1)c1nc(-n2cnnc2)ccc1Br | x | 0.89
Cc1cc2n(n1)CCC(=O)N2CCCC(=O)O | 0.32 | 0.88
Cn1cccc1-c1cc2n(n1)CCC(=O)N2CCCC(=O)NC1CC1 | x | -0.16
CN(Cc1ccccc1)c1oc(COc2ccc(Cl)cc2)nc1C#N | -2.4 | -0.19
CCc1ccc(C2CC(=O)NC(SC)=C2C#N)cc1 (configuration not stated) | -0.67 | 0.35
CC(=O)c1c(O)cc(O)cc1O | x | 3.4
Cc1ccc2c(c1)-c1onc(C(=O)N3CCC(N4CCCCC4)CC3)c1CO2 | x | 2.8
CC(C)=CCc1c(O)cc2c(c1O)C(=O)C[C@@H](c1ccccc1)O2 | x | -0.72
Cc1cc(C)c(C)c(S(=O)(=O)N2CC(C)OC(C)C2)c1C (configuration not stated) | 0.43 | 1.6
c1ccc(Oc2nc(-c3ccncc3)nc3ccccc23)cc1 | 0.16 | 1.4
C=C(C)c1cccc(C(C)(C)NC(=O)NCCc2ccc(F)cc2)c1 | -0.66 | 1
CCc1nonc1NC(=O)c1oc2cc(Br)ccc2c1C | -2.2 | -0.62
Cn1c(=O)n(C)c2cc(S(=O)(=O)Nc3cccc(F)c3)c(Cl)cc21 | x | 0.71

As a working copy, 3 of the compounds above:
compound | CDC25B CDK2 inh | HIV TAR-Tat
CC1CCc2c(sc(NC(=O)c3nc(-n4cnnc4)ccc3Br)c2C#N)C1 (configuration not stated) | x | 1.9
O=C(c1cc(=O)c2cc(Cl)ccc2o1)N(Cc1ccc(F)cc1)C1CCS(=O)(=O)C1 (configuration not stated) | -1.9 | -0.94
O=C(Nc1ccc(O)cc1)c1nc(-n2cnnc2)ccc1Br | x | 0.89

Going on with the list.
compound | CDC25B CDK2 inh | HIV TAR-Tat
Cc1nn(CC(=O)O)c(=O)c2cccn12 | 0.24 | -0.73
COc1ccc(OC)c(CNc2ncc(-c3ccc(Br)cc3)n2C)c1 | -0.66 | -0.02
COc1cccc(NC(=O)NCCN2CCN=C2C)c1 | -2.6 | x
Cn1nc(C2CC2)cc1NC(=O)Nc1csc2ccccc12 | -0.45 | x
CCCCCC(O)(c1ccccc1)C(CN1CCOCC1)c1ccccc1 (configuration not stated) | -0.83 | 0.75
CCc1ccc(NC(=O)CSc2nc(-c3ccc4c(c3)OCO4)nc3cc(=O)[nH]n23)cc1 | x | 7.4
COc1ccc(-c2cnc(C)o2)cc1S(=O)(=O)Nc1c(C)cc(C)cc1C | x | 1.6
O=C(COCc1cc(-c2ccc3c(c2)OCO3)on1)Nc1cccnc1 | x | -0.73
O=S(=O)(Nc1cccc(-c2ccc(N3CCCC3)nn2)c1)c1ccc(Cl)cc1 | x | 0.76
COc1ccc(-c2cnc(C)o2)cc1S(=O)(=O)Nc1ccc(C)cc1C | x | 1
COc1cccc(N2C(=O)CC(c3c[nH]c4ccccc34)C2=O)c1 (configuration not stated) | -2.2 | -3.7
CC1(C)N=C(N)N=C(N)N1c1ccc(F)cc1F | 0.32 | x
CCc1ccccc1-n1nnc(-c2nc(-c3ccc(Cl)cc3)no2)c1N | x | 1.6
CCOCCCNC(=O)c1cccn2c(=O)c3c4c(sc3nc12)CCCC4 | x | 0.51
O=C(NC1CCCCC1)c1ccc(Cn2nc(N3CCN(c4ccc(F)cc4)CC3)ccc2=O)o1 | x | 1.7

Continued; the last three above are carried over.
compound | CDC25B CDK2 inh | HIV TAR-Tat
CCc1ccccc1-n1nnc(-c2nc(-c3ccc(Cl)cc3)no2)c1N | x | 1.6
CCOCCCNC(=O)c1cccn2c(=O)c3c4c(sc3nc12)CCCC4 | x | 0.51
O=C(NC1CCCCC1)c1ccc(Cn2nc(N3CCN(c4ccc(F)cc4)CC3)ccc2=O)o1 | x | 1.7
CC1CCC(C(=O)Nc2ccc3nc4n(c(=O)c3c2)CCCC4)CC1 (configuration not stated) | 0.15 | 0.12
Cc1ccc(-c2csc(NC(=O)C3C4C=CC(O4)C3C(=O)O)n2)cc1 (configuration not stated) | -1.5 | 0.74
CC1CC(C)CN(S(=O)(=O)c2cc(F)ccc2CN2C(=O)c3cccnc3C2=O)C1 (configuration not stated) | x | 0.25
COc1ccc(-c2[nH]ncc2/C=N/Nc2cnc3ccccc3n2)cc1 | -2.1 | x
Cc1csc2sc(C(=O)CC(=O)C(F)(F)F)c(C)c12 | -0.96 | x
CC(=O)OCC1=C(C(=O)O)N2C(=O)C(NC(=O)C3CCCCC3)C2SC1 (configuration not stated) | -0.7 | -0.45
CC1CCc2c(sc3nnn(CC(=O)N(C)Cc4ccccc4)c(=O)c23)C1 (configuration not stated) | -1.9 | -0.36
CC1CN(S(=O)(=O)c2cccc(-c3cn4ccccc4n3)c2)CC(C)O1 (configuration not stated) | -2.4 | -0.55
O=C(Nc1cc(F)ccc1F)c1cc2ccc3cccnc3c2[nH]1 | x | 1.8
COc1ccc(/C=C/c2nc(C#N)c(N3CCC(C(N)=O)CC3)o2)cc1OC | -1.9 | -0.82
O=C(C1CCN(c2ccc(F)cc2)C1=O)N1CCCCC1 (configuration not stated) | x | 2.1
CCOC(=O)c1oc2ccc(S(=O)(=O)Nc3noc4ccccc34)cc2c1C | 5.8 | 1
CCN1C(=O)N(COC(C)=O)C2C1N(COC(C)=O)C(=O)N2CC (configuration not stated) | -1.9 | x
COc1ccc(-c2cn3c4ccccc4nc3n2CCCN2CCOCC2)cc1 | 1.6 | 1.5
NC(=O)c1c(NC(=O)CSc2ccc(Cl)cc2)sc2c1CCCC2 | -0.1 | 0.09
CCC1=C(OC(=O)c2ccccc2)C(C)(C)C(c2ccccc2)OC1=O (configuration not stated) | -4.6 | 0.57
CCC(=O)Nc1ccc2c(c1)C(=O)N(C)C1=NCCN12 | x | 0.84
O=C(NNC(=O)C(F)(F)Sc1ccccc1)c1ccsc1 | -1.3 | x
O=C(CCc1nc(-c2cccs2)no1)Nc1ccccc1 | 1.5 | 0.9
CC1CCCCN1CCNC(=O)Cn1c(=O)c2cccn2c2ccc(F)cc21 (configuration not stated) | x | -0.01
CC(C)(C)c1ccc(OC(=O)c2ccco2)cc1 | 0.98 | 0.46
O=C1/C(=C/c2cccc(Cl)c2)CSc2sccc21 | -0.92 | x
COc1cc(NC(=O)CC(C)S(=O)(=O)c2ccc3c(c2)CCN3C(C)=O)cc(OC)c1 (configuration not stated) | x | 0.67
COc1ccc(-n2c(CN3CCNCC3)nc3cccnc32)cc1 | x | 1.9
CC1CC(=O)Nc2cc(S(=O)(=O)NCCC3=CCCCC3)ccc2S1 (configuration not stated) | x | 1.5
COc1cc2nc(SCC(=O)NC3CCCCC3)n3nc(C)nc3c2cc1OC | -1.4 | x
Nc1ncnc(SCc2c(Cl)cccc2Cl)n1 | 0.27 | x
CCCc1c(C)nc2ncnn2c1Nc1ccc(OCC)cc1 | -2.6 | 0.83
CCN1c2cc(C)ccc2-n2cccc2C12CCN(C(=O)Nc1cc(C)ccc1C)CC2 | x | 12
Cc1ccc(CN2CCC(CNC(=O)CCc3nnc4ccc(N5CCCC5)nn34)C2)cc1 (configuration not stated) | x | -0.99

Some of these compounds in order of SMILES length, lowest first:
compound | CDC25B CDK2 inh | HIV TAR-Tat
Cc1nn(CC(=O)O)c(=O)c2cccn12 | 0.24 | -0.73
CC1(C)N=C(N)N=C(N)N1c1ccc(F)cc1F | 0.32 | x
CC1CCCCN1CCNC(=O)Cn1c(=O)c2cccn2c2ccc(F)cc21 (configuration not stated) | x | -0.01
COc1ccc(-c2cnc(C)o2)cc1S(=O)(=O)Nc1c(C)cc(C)cc1C | x | 1.6

Quoted from the listing:
Result for `O=S(=O)(Nc1cccc(-c2ccc(N3CCCC3)nn2)c1)c1ccc(Cl)cc1` in HIV TAR-Tat: 0.76
Result for `CCOC(=O)c1oc2ccc(S(=O)(=O)Nc3noc4ccccc34)cc2c1C` in HIV TAR-Tat: 1
Result for `CC1CCc2c(sc(NC(=O)c3nc(-n4cnnc4)ccc3Br)c2C#N)C1` (configuration not stated) in HIV TAR-Tat: 1.9
Result for `Cn1nc(C2CC2)cc1NC(=O)Nc1csc2ccccc12` in CDC25B CDK2 inh: -0.45
Result for `CCC1=C(OC(=O)c2ccccc2)C(C)(C)C(c2ccccc2)OC1=O` (configuration not stated) in HIV TAR-Tat: 0.57
Result for `Cn1cccc1-c1cc2n(n1)CCC(=O)N2CCCC(=O)NC1CC1` in HIV TAR-Tat: -0.16

Next structures follow.
compound | CDC25B CDK2 inh | HIV TAR-Tat
O=C(c1c2c(nc3ccccc13)C(=O)N(C1CCCCC1)C2)N1CCN(c2ccc(F)cc2)CC1 | x | 0.32
CCC(=O)CC1OC(=O)c2c1ccc(OC)c2OC (configuration not stated) | 0.3 | 0.34
Cc1ccc(-c2nnc(-c3ccc(Br)cc3)o2)cc1 | -0.25 | 3
COc1ccc(NS(=O)(=O)c2c(C)nc3sc4ccccc4n3c2=O)cc1OC | x | 2.2
CC(C)(Oc1ccc(CCNC(=O)c2ccc(Cl)cc2)cc1)C(=O)O | -3.4 | 0.29
O=C(NCC1CCCO1)N1c2ccccc2Sc2ccccc21 (configuration not stated) | -0.58 | x
CCn1c(SCc2nc(-c3ccc(C)cc3)no2)nnc1-c1ccncc1 | -1 | 0.72
CCOC(=O)CSCc1nc(-c2ccc(Cl)cc2)oc1C | -2.1 | x
CCCCN(C)S(=O)(=O)c1ccc2c(c1)n(C)c(=O)c(=O)n2C | -2 | 0.67
O=C(O)c1nc2ccccc2c2ncccc12 | -1.3 | x
CC1=C(c2ccc(F)cc2)S(=O)(=O)N(Cc2ccc(C(=O)NC3CC3)cc2)C1=O | x | 1.5
COc1ccc(C(=O)CSc2ncn[nH]2)cc1 | -0.87 | 0.79
CCC1(C)Cc2[nH]c(=O)c(C#N)cc2CO1 (configuration not stated) | -1.9 | 1.2
CC1CCCC(C)N1CCCNC(=O)c1csc2c1CCCCC2 (configuration not stated) | -1.6 | 1.2
CCn1c[n+](CC(O)COc2cccc(OC)c2)c2ccccc21 (configuration not stated) | -1.4 | 0.87
CC1=C(C(=O)OC(C)C)C(c2coc3ccc(C)cc3c2=O)C2=C(CC(C)(C)CC2=O)N1 (configuration not stated) | -0.65 | 2.1
CCc1cccc(-n2c(-c3ccco3)nc3c(cnn3-c3ccc(F)cc3)c2=O)c1 | -2.4 | x
CN(C)CCCN1C(=O)C(=O)/C(=C(/O)c2ccc(S(=O)(=O)N(C)C)cc2)C1c1ccccc1F (configuration not stated) | -0.24 | 0.09
CCOC(=O)Cc1csc(NC(=O)Cc2cccs2)n1 | -2.9 | 4.3
O=C(CC1Sc2ccccc2NC1=O)Nc1ccc2c(c1)OCO2 (configuration not stated) | -2.7 | 1.1
O=C(N/N=C\c1ccc(-c2ccc(Cl)c(Cl)c2)o1)C(=O)N1CCCC1 | -2.1 | x
O=C(c1cccnc1)N(c1ccc2oc(=O)sc2c1)S(=O)(=O)c1ccc(Br)cc1 | -0.42 | 0.96
CCOCCCNc1ncnc2oc(C)c(C(=O)OCC)c12 | x | -0.77
Cc1ccc(/C(O)=C2\C(=O)C(=O)N(CCN3CCOCC3)C2c2ccc(C)o2)cc1 (configuration not stated) | -1.1 | 0.37
CCN1CCc2c(sc(-n3cccc3)c2CNC(=O)NC2CCCCC2)C1 | 0.72 | -5.5
Cc1ccccc1OCc1cc(=O)n2c(C)csc2n1 | 0.28 | -0.01
COc1ccc(OC)c2[nH]c(=O)c(CCNC(=O)CC(C)C)cc12 | 0.63 | x
CS(=O)(=O)NCCc1csc2nc(-c3ccccc3)nn12 | x | 1.2
Cc1cc2c(cc1S(=O)(=O)NC(C)c1ccccc1)OCC(=O)N2 (configuration not stated) | x | 2
CN(C)CCNC(=O)Cn1c(=O)oc2cc(S(=O)(=O)N3CCCC3)ccc21 | -1.9 | x
CN1CCN(Cc2nc3c(c(=O)n(C)c(=O)n3C)n2CCc2ccccc2)CC1 | -1.3 | 1.7
Cn1ccc(NS(=O)(=O)c2ccc(N3C(=O)c4ccccc4C3=O)cc2)n1 | -1.9 | x
CC(C)CCN1C(=O)c2nc3ccccc3n2CC1(C)C(=O)NC1CCCC(C)C1C (configuration not stated) | x | 1.1
CCOC(=O)c1sc(NC(=O)c2ccc(Cl)cc2)nc1C | -1.9 | x
CCn1cc(C(=O)OCC(=O)N2CCCC(C)C2)c(=O)c2ccc(C)nc21 (configuration not stated) | -0.08 | 0.09
CS/C(=N\S(=O)(=O)/C=C/c1ccccc1)NN | -0.44 | x
Cc1ccc(NS(=O)(=O)c2ccc(-n3cccn3)cc2)c(Br)c1 | x | 1
Cc1ccc(S(=O)(=O)N2CCN(S(=O)(=O)c3ccc(C)c(C)c3)C(C)C2)cc1C (configuration not stated) | -2.4 | 0.71
CCn1cc(C(=O)NCCC2=CCCCC2)c(=O)c2cc(S(=O)(=O)N(C)C3CCCCC3)ccc21 | -1.1 | 0.3
COc1ccc(C2=NN(C(=O)CCCC(=O)O)C(c3ccc(Cl)cc3)C2)cc1 (configuration not stated) | 0.18 | -0.04
CC(C)CNC(=O)C1CCN(c2nnc(N3CCCC3=O)s2)CC1 | x | 0.26
O=C(Cc1ccc(NC2=NC3CS(=O)(=O)CC3S2)cc1)NCc1ccccn1 (configuration not stated) | -1.3 | 1.5
COc1ccc(/C(C)=N/Nc2c([N+](=O)[O-])cc(C(F)(F)F)cc2[N+](=O)[O-])cc1CN1CCOCC1 | -1.1 | x
Cc1ccc(CCNS(=O)(=O)c2ccc(-c3ccc(=O)[nH]n3)s2)cc1 | x | 0.05
COc1cccc(CNc2nn3nnnc3c3ccccc23)c1 | -3.2 | -0.6
